Source: PubChem BioAssay
Six1-Eya2 blk = qHTS Assay for Inhibitors of the Six1/Eya2 Interaction. AID 651725, 2012. activity change, % (no concentration beside the values). AlphaScreen GST-Six1/His-Eya2 binding, biochemical; stronger effect = lower value; control for the full effect not named in the record. actives 0.56% (n = 360,000). Homeobox protein SIX1 (Homo sapiens) + Protein phosphatase EYA2 (Homo sapiens), …; in the data active = activity change below about -65%; inconclusive = about -30% to -65%; inactive = above about -30%; also: % is scaled to controls: 0 for no effect and ±100 for the full control effect; compound concentration not given in the record
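Homogeneous AlphaScreen proximity assay pairing GST-Six1 with His-tagged Eya2 (added as 5X mix: 250 nM and 500 nM) in 50 mM Tris pH 8.0, 300 mM NaCl, 1 mM TCEP. Glutathione donor and nickel acceptor beads; 1 h, 37 °C, dark.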
TRPML1 blocker = qHTS for Inhibitors of the Human Mucolipin Transient Receptor Potential 1 (TRPML1) | Mucolipin-1 (Homo sapiens), Q9GZU1 | TRPML1-inducible cells, Ca2+ dye fluorescence, FDSS; stronger effect = lower value; inhibition of EC80 agonist-evoked calcium signal | activity change, negative = inhibition, % (test concentration not listed) | actives 0.02% (n = 390,000) | AID 624415, 2012; in the data active means activity change below about -50%; inconclusive means about -30% to -50%; inactive means above about -30%;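 also: stimulus is agonist 54-4 at its EC80 concentration; % is scaled to controls: 0 for no effect and ±100 for the full control effect; compound concentration not given in the record; the text of the record puts the active cut at -80%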
Target sequence (Q9GZU1 whole entry, looked up): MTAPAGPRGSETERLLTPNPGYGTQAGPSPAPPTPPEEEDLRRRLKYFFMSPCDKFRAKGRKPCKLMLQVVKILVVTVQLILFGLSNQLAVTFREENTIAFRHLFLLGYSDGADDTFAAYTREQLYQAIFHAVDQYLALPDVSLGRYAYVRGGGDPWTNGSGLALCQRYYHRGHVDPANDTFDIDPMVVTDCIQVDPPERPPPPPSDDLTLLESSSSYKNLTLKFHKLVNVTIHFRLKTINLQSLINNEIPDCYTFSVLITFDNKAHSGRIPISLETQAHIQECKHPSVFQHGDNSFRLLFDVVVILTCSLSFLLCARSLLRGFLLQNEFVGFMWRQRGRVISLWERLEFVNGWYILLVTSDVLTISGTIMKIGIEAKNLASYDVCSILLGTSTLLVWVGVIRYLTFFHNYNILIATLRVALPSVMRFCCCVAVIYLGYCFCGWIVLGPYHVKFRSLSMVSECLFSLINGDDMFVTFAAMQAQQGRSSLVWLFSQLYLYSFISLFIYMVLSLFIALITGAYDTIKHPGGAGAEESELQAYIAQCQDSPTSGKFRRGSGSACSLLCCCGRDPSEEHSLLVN
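Calcium fluorescence in TRPML1-DL cells induced overnight with Tet: a 110 s read after compound pin addition, then a 110 s antagonist read after challenge with 54-4 at 4 uM final (EC80).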
TRPML1 agonist = qHTS for Agonists of the Human Mucolipin Transient Receptor Potential 1 (TRPML1); Mucolipin-1 (Homo sapiens), Q9GZU1; actives 0.12% (n = 410,000); activation, % (test concentration not listed); TRPML1-expressing cells, Ca2+ dye fluorescence, FDSS; host cell line not named in the record; reference of the full effect not given here; AID 624414, 2012; in the data active = activation above about 50%; inconclusive = about 30% to 50%; inactive = below about 30%; also: 0% is about no effect; the text of the record puts the active cut at 80%
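Calcium fluorescence on an FDSS kinetic reader gave the read-out. Tet-induced TRPML1-DL cells were plated overnight, dye-loaded (Ca8 with quencher, 45-90 min, room temperature, dark), then read 110 s after compound addition, and again 110 s after 4uM final 54-4 (EC80).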
D2 agonist = Beta-Arrestin HTS for Positive Allosteric Modulators of the Human D2 Dopamine Receptor: Agonists. actives 0.084% (n = 360,000). activation, % (test concentration not listed). DiscoveRx PathHunter D2 beta-arrestin, luminescence, 90 min; 100% = 57 uM dopamine signal. D(2) dopamine receptor (Homo sapiens), P14416; in the data active = activation above about 40%; inconclusive = about 15% to 40%; inactive = below about 15%; also: compound concentration not given in the record; the text of the record calls up to 30% inactive
Target sequence (P14416 whole entry, looked up): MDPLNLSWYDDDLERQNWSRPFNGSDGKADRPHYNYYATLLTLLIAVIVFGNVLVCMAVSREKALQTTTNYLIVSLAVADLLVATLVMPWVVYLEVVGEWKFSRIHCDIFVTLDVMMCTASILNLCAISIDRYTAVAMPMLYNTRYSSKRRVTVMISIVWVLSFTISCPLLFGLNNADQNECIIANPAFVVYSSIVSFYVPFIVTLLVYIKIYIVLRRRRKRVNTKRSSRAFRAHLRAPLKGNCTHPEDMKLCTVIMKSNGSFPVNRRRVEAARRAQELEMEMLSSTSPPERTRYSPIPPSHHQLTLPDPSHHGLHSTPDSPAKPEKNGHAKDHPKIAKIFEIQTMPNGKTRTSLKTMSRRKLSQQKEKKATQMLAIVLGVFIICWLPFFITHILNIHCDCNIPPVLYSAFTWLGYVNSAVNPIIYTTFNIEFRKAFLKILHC
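Agonist mode: compounds alone added to overnight-plated D2 PathHunter cells for 90 min at 37 C, with 57 uM final dopamine (EC100) defining full response. Beta-arrestin recruitment detected by chemiluminescent reagent, read after 1 h at ambient temperature.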
CtBP-E1A inh = qHTS Assay for Inhibitors of the CtBP/E1A Interaction; CtBP / adenovirus E1A interaction (AlphaScreen); AlphaScreen GST-E1A/His-CtBP binding, 1536-well; stronger effect = lower value; control for the full effect not named in the record; activity change, % (concentration not given with the values); actives 0.49% (n = 340,000); AID 651724, 2012; in the data active means activity change below about -65%; inconclusive means about -30% to -65%; inactive means above about -30%; also: % is scaled to controls: 0 for no effect and ±100 for the full control effect
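Homogeneous bead-based format: GST-tagged E1A captured on glutathione donor beads, His-tagged CtBP on nickel acceptor beads; compounds precede bead addition by 2 h at 37 °C.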
PINK1 modulator = A Quantitative High throughput Screen to Identify Chemical Modulators of PINK1 Expression; Potency, µM (doses to about 76.6 µM), without a hit: at the highest dose activation (PINK1 increase), hits mostly activators; AID 624263, 2012; PINK1 immunofluorescence, high-content cytometry, 24 h; actives 0.2% (n = 410,000); active = well fitted activation curve with a large enough effect; inconclusive = small, poorly fitted or top-dose-only effect; inactive = flat fitted curve, though single readings scatter; cell line not stated here;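 also: potency is read from the fitted curve at half-maximal effect; % of control where 0% means no effect; nearly all actives have a fitted effect of over 65% in size; a mitochondrial uncoupler was the plate control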
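Stable cell line treated 24 h with compounds at 5 concentrations (CCCP controls), then fixed and immunostained for PINK1 plus nuclear and cell stains; PINK1 immunofluorescence quantified by laser-scanning microplate cytometry.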
* hit, by the source's call; ? = inconclusive; · = not tested or not shown; [ ] = remark or other dose.

cpd | mol | Six1-Eya2 blk | TRPML1 blocker | TRPML1 agonist | D2 agonist | CtBP-E1A inh | PINK1 modulator
1 | Cc1noc(C)c1C(=O)N1CCC2(CC1)OCCO2 | 1.9 | 9.9 | 0.1 | 1.2 | 2.9 | -2.4%[38.3 µM]
2 | CC(C)Oc1cccnc1N(C)C1CCN(Cc2ccccc2)CC1 | -8.0 | 0.1 | -0.8 | -8.4 | -8.6 | 1.7%
3 | CCOP(=O)(OCC)C1(C(=O)O)CCCC1 | 2.9 | 4.4 | -0.7 | -4.2 | 2.3 | -0.8%
4 | O=c1[nH]c(=S)n(CCC2=CCCCC2)c(O)c1C=NC1CCN(Cc2ccccc2)CC1 | 4.1 | -4.4 | -0.5 | -1.5 | 0.0 | -3.0%
5 | COc1ccc(OC)c(CCNCc2c(C(=O)O)c(C)n(Cc3ccc(F)cc3Cl)c2C)c1 | · | 28.7 | -0.3 | · | · | 2.1%
6 | O=C(COc1ccc(Br)cc1)N1CCN(Cc2ccc3c(c2)OCO3)CC1 | -0.8 | -6.1 | 1.2 | -0.4 | -17.7 | -0.3%
7 | COc1cccc(-n2c(O)c(C=NCc3ccc4c(c3)OCO4)c(=O)[nH]c2=O)c1 | -0.9 | -18.1 | -0.3 | -3.4 | -0.8 | 0.6%[38.3 µM]
8 | COc1ccc(N=Nc2c(O)[nH]c(=S)[nH]c2=O)cc1 | -11.1 | 25.3 | 3.4 | -16.4 | -0.6 | 0.4%
9 | O=C(Nc1ccc(Br)cc1C(=O)c1ccccc1Cl)c1ccccc1F | · | -24.4 | 77.4* | · | · | 2.4%
10 | Cc1ccc(-n2c(=S)[nH]c3ccccc3c2=O)cc1C | -23.9 | 0.8 | -0.6 | -2.3 | 23.3 | 5.7%
11 | C[C@@H]1COc2cc(N3CCN(C)CC3)ccc2S(=O)(=O)N1 | -4.3 | · | 0.3 | · | 6.6 | -0.8%
12 | Clc1ccccc1CN1CCN(c2cccc3[nH]ccc23)CC1 | -19.5 | 1.1 | 1.7 | 5.0 | -11.0 | 2.3%
13 | CCCCn1c(N)c(C(=O)NCCN2CCOCC2)c2nc3ccccc3nc21 | 0.0 | -3.9 | 0.0 | -0.8 | 18.7 | 4.3%
14 | COc1cc2c(cc1C=O)OCO2 | -7.0 | -1.8 | -0.4 | -5.3 | -15.4 | 0.0%
15 | Cc1ccccc1-c1ccc2n1Cc1cnnn1-c1ccccc1-2 | ? | -17.2 | 0.6 | -0.7 | ? | 5.6%
16 | Cc1cc(N2C(=O)C3CCCN3C2c2ccccc2)no1 (stereo not drawn) | -9.2 | 0.4 | 0.3 | -3.5 | -5.3 | -3.3%
17 | NC(=O)CSc1nnc([C@@H](N)Cc2c[nH]c3ccccc23)o1 | -2.0 | 0.0 | -0.6 | -1.6 | -9.0 | 37.6%[38.3 µM]
18 | N=C1c2ccccc2CN1NC(=O)c1ccc(Cl)cc1 | 4.0 | 6.5 | 0.3 | -2.1 | -5.4 | ·
19 | COc1ccc(Cl)cc1C(=O)C1CCCN(Cc2cnc(C)s2)C1 (stereo not drawn) | 11.1 | 14.3 | 2.0 | -2.5 | 13.3 | 0.0%
20 | C=Cn1ccnc1P(=S)(c1cc(N(CC)CC)ns1)c1nccn1C=C | -2.6 | -10.9 | -0.5 | -1.0 | -2.2 | -0.2%[38.3 µM]
21 | O=C(c1cc(S(=O)(=O)N2CCCCC2)ccc1F)N1CCC2(CC1)OCCO2 | 4.7 | 27.2 | 0.0 | 0.4 | 11.8 | -3.2%[38.3 µM]
22 | CCCC[N+]12C3C[C@H](C4[C@H](O)[C@]5(C[C@@H]41)c1ccccc1N(C)[C@@H]35)[C@H](CC)[C@H]2O (stereo partly drawn) | -4.0 | 0.3 | 1.5 | -3.1 | · | -0.8%
23 | Cc1ccc(C)c(NC(=O)CSc2nnc([C@@H](N)Cc3c[nH]c4ccccc34)o2)c1 | -3.1 | 8.8 | 0.0 | -3.3 | -5.0 | 14.4%[38.3 µM]
24 | CC1(C(=O)O)CCCC2(C)c3cc(O)ccc3CCC12 (stereo not drawn) | 2.4 | 17.5 | 0.6 | -5.1 | · | -0.5%
25 | CCOC(=O)[C@]12Cc3ccc(C)cc3[C@H]1N(C1CCCCC1)C(=O)c1cc(OC)ccc12 | 1.4 | · | -0.2 | · | 22.5 | -0.4%

cpd | mol | Six1-Eya2 blk | TRPML1 blocker | TRPML1 agonist | D2 agonist | CtBP-E1A inh | PINK1 modulator
26 | COc1ccc(CNC(=O)C(NC(C)=O)C(C)C)cc1OC (stereo not drawn) | 4.5 | 1.1 | 0.0 | 0.9 | 2.6 | 0.3%
27 | CN(C)Cc1c[nH]c2ccc([N+](=O)[O-])cc12 | -4.0 | 2.9 | 0.2 | -0.3 | 2.6 | 0.3%
28 | CCN1C[C@]2(CO)CC[C@H](OC)[C@@]34C2[C@H](OC)[C@@](O)(C13)[C@@]1(O)C[C@H](OC)[C@H]2C[C@@H]4[C@@H]1[C@H]2OC | 0.2 | -4.2 | 0.1 | 5.1 | · | 4.1%
29 | COC(=O)C1=C(c2ccc(-c3ccccc3)c(F)c2)C[C@@H]2CC[C@H]1N2C(=O)NCCO | 17.3 | -2.4 | -0.4 | -2.2 | 21.7 | 2.3%
30 | CC1=NN(c2ccccc2)C(=O)/C1=C/c1c(O)[nH]c(=O)[nH]c1=O | 1.6 | 16.6 | -0.9 | -5.2 | -0.8 | 0.3%
31 | CCCOC(=O)Nc1ccc([As](=O)(O)O)cc1NC(=O)OCCC | 25.3 | 0.0 | -0.4 | 1.4 | -7.0 | 0.1%
32 | COc1ccc(N=C(C)c2c(O)[nH]c(=O)[nH]c2=O)cc1 | -3.7 | -7.2 | -0.4 | -4.5 | 7.4 | 0.3%
33 | O=c1[nH]c(=O)n(-c2ccccc2F)c(O)c1/C=C1\C=Nc2ccccc21 | 8.5 | -7.2 | 1.0 | -1.3 | · | 6.3%
34 | CC(C)CCOP(N)(=O)Oc1ccccc1 (stereo not drawn) | 0.9 | -9.2 | 0.1 | -1.3 | 1.6 | -0.2%
35 | COc1ccc(-n2c(SC)nc3ccccc3c2=O)cc1 | -3.3 | -6.1 | -1.0 | -4.3 | 0.4 | -2.1%
36 | CC(C)Sc1nnc([C@@H](N)Cc2c[nH]c3ccccc23)o1 | -7.7 | -7.6 | -1.0 | -3.7 | -2.6 | 44.3%[38.3 µM]
37 | CC(=NCc1ccc2c(c1)OCO2)c1c(O)[nH]c(=O)[nH]c1=O | -2.6 | 34.7 | -0.9 | -2.0 | -3.2 | -1.5%
38 | COC(=O)C1=C(c2cccc(OC)c2OC)C[C@@H]2CC[C@H]1N2C(=O)NC1CCCCC1 | -1.0 | 3.1 | -0.6 | -2.1 | -0.9 | -0.2%
39 | Cc1ccc(-n2nc(C)c3c2NC(=O)CSC3c2ccc(O)cc2)cc1Cl (stereo not drawn) | · | 44.3 | 21.7 | · | · | 0.1%
40 | CCN(CC)S(=O)(=O)c1cccc(N=Nc2c(O)n(CC)c(=S)n(CC)c2=O)c1 | -16.0 | 35.5 | 0.0 | -1.1 | · | 0.3%
41 | COc1ccc(C2=CC(c3ccc4c(c3)OCO4)c3c(c4ccccc4oc3=O)O2)cc1OC (stereo not drawn) | -19.5 | 59.1 | 0.4 | 12.8 | -16.1 | 1.1%
42 | Cc1nc2c(-c3ccc(F)cc3)c(C)nn2c(C)c1CCC(=O)N1CCC2(CC1)OCCO2 | 3.8 | 6.8 | 0.2 | -0.9 | 4.6 | -0.2%
43 | Nc1nonc1OCCCCOc1nonc1N | -16.6 | -7.1 | -0.4 | -1.3 | 0.0 | 0.0%
44 | CCOC(=O)c1c(C)n(Cc2ccc(F)cc2)c2ccc(O)cc12 | -12.3 | 0.3 | 1.1 | -4.5 | · | 6.4%
45 | COc1ccc(CNCCc2c[nH]c3ccccc23)cc1OC | -12.1 | -12.1 | 1.1 | -0.7 | · | 10.4%
46 | CCCCOC(=O)c1ccc(NC(=O)c2c(O)[nH]c(=O)[nH]c2=O)cc1 | -0.3 | -6.7 | -1.0 | -0.1 | 5.1 | 8.4%
47 | C[C@@H]1CN([C@@H](C)CO)C(=O)CCCn2cc(nn2)CO[C@H]1CN(C)C(=O)Oc1ccc2ccccc2c1 | 1.7 | -8.1 | 0.5 | -2.9 | 9.8 | -0.3%
48 | O=c1c2ccccc2nc(-c2ccco2)n1-c1ccccn1 | 1.3 | -1.2 | 0.4 | 0.0 | 0.6 | -2.1%
49 | CCOC(=O)C1(CCc2ccccc2)CCN(Cc2ccc3c(c2)OCCO3)CC1 | -8.8 | -6.3 | 1.8 | -3.3 | -17.3 | ?
50 | CN1CC=C(/C=C/c2ccc(-c3ccccc3)cc2)CC1 | -5.1 | · | · | 2.0 | · | 3.5%

cpd | mol | Six1-Eya2 blk | TRPML1 blocker | TRPML1 agonist | D2 agonist | CtBP-E1A inh | PINK1 modulator
51 | CCOC(=O)CC1=C(C(=O)OCC)C2(C(=O)N1CC(=O)OC)C(C#N)=C(N)Oc1ccccc12 (stereo not drawn) | 3.2 | 22.2 | 0.5 | 3.3 | 6.7 | 4.7%[38.3 µM]
52 | Cc1ccc(S(=O)(=O)N2Cc3cc(-c4ccccc4)ccc3-n3nncc3C2)cc1 | 3.3 | · | -0.6 | -0.9 | 7.5 | 5.8%
53 | CN(C(=O)Cc1ccc(Cl)c(Cl)c1)C(CN1CCCC1)c1cccc(OCC(=O)O)c1 (stereo not drawn) | -4.9 | 28.7 | -0.8 | -1.6 | 2.5 | -0.1%
54 | Cc1ccc(-c2ccc(=O)n(CC(=O)N3CCC4(CC3)OCCO4)n2)cc1 | 5.0 | -16.5 | -0.5 | -7.4 | 2.4 | 2.1%
55 | N#Cc1ccc(NC(=O)CN2CCN(C(=O)c3cccs3)CC2)cc1Cl | -7.1 | 27.5 | -0.3 | -2.1 | 1.8 | 1.1%
56 | O=C(Cc1c[nH]c2ccccc12)NNCc1ccc(N(CCCl)CCCl)cc1 | -18.2 | -6.3 | -0.7 | 1.0 | -16.7 | 0.4%
57 | c1ccc(Cn2ccnc2)cc1 | 0.9 | 3.3 | -0.6 | -1.1 | 23.4 | 1.2%
58 | O=P(Nc1cccc(Cl)c1)(Oc1ccccc1)Oc1ccccc1 | 6.2 | 20.0 | 1.9 | 3.1 | 11.4 | 0.0%
59 | Cc1c(O)ccc(C(=O)CN2CC(C)OC(C)C2)c1O (stereo not drawn) | 10.0 | 16.7 | 0.5 | 1.9 | · | 2.4%
60 | Cc1nn(-c2ccccc2)c2c1C(c1ccc(F)cc1F)C(C#N)=C(N)O2 (stereo not drawn) | -3.7 | 4.4 | -0.2 | -0.3 | -0.7 | 11.2µM*

Only part of the results is shown. The share of hits here may be higher or lower than overall.
